Compound activity from PubChem.
Mtb hypoxia rep = inhibitors of hypoxia-regulated fluorescent reporter in Mycobacterium tuberculosis; hit rate 0.1% among 300,000; M. tuberculosis hypoxia-regulated fluorescent reporter, fluorescence; fluorescence inhibition, % (no concentration beside the values);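 active = 35 to 45% if threefold the growth effect, above 45% if 1.5-fold the growth effect; inactive = the rest, general growth blockers included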;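 note: wells of about 50 µL received 100 nL stock; 0% = vehicle wells and 100% = reference inhibitor wells; whole bacteria with a GFP reporter of the hypoxia response; strong numbers were not always called active; many hits fall short of the cut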
PrP UTR inh = inhibition of PrP 5' UTR reporter expression | cell-based PrP 5' UTR mRNA reporter, plate reader | AID 488862 | inhibition, % (concentration not given with the values) | hit rate 0.35% among 340,000;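 active = every replicate at 50% or more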;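 note: 0 = median of the neutral control wells; tested in H4 reporter cells; numbers are from one replicate; inactives centre near -14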
Bead autofluor = flagged as autofluorescent in microsphere protease counterscreen; compound autofluorescence counterscreen, microsphere flow cytometry; active compounds read high; hit rate 3.1% among 360,000; fluorescence intensity (test concentration not listed);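 active = at least 3 SD above the mean of all compounds, about 16000 in these data; inconclusive = too few beads counted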;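 note: 100 nL of 1 mM stock went into each well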
RN4220 kill = S. aureus RN4220 growth inhibition | inhibition, % (no concentration beside the values) | OD600, 16 h | hit rate 0.33% among 330,000;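 active = z-score of -3 or lower and OD600 up to 0.18 on both plates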;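 note: plate controls were untreated cells for no effect and reference antibiotic for full effect; stock transfer was 100 nL into about 80 µL; one replicate is shown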
Sa ugtP lethal = growth inhibition of S. aureus ugtP deletion strain | growth inhibition, % (test concentration not listed) | S. aureus RN4220 ugtP deletion, OD600 growth, 16 h; some inactives read as strong as hits | hit rate 0.54% among 330,000;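 active = z-score under -3 and OD600 up to 0.15 on both plates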;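 note: plate controls were untreated wells for no effect and antibiotic for full effect; wells of about 80 µL received 100 nL stock; the first replicate is given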
BJeLR viability = BJeLR cell viability loss; inhibition, % (no concentration beside the values); BJeLR (HRASV12) viability, CellTiter-Glo ATP luminescence, 48 h; reference of the scale not given here; AID 1554; hit rate 0.17% among 300,000;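 active = replicate mean above 50%; inconclusive = above 50% but judged a plate artefact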;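 note: 50 nL library stock added to about 25 µL; numbers are from one replicate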
Mtb hypoxia rep growth = recorded beside Mtb hypoxia rep, whose call it bears; growth inhibition, %; measured here: M. tuberculosis growth (absorbance);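 0% = vehicle and 100% = reference antibiotic; read after six days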
An asterisk follows results filed as active; ? = inconclusive; / = no result given. An unsorted share of the library; overall some 4% were active at least once.

SMILES	Mtb hypoxia rep	Mtb hypoxia rep growth	PrP UTR inh	Bead autofluor	RN4220 kill	Sa ugtP lethal	BJeLR viability
CSCC[C@H](NC(=O)N1CCn2c1nc1ccccc12)C(=O)NC1CC1	7	6	-9	5994	0.8	2	-5
COCCn1c(CN(Cc2ccccc2)Cc2ccccc2)nc2c1c(=O)n(C)c(=O)n2C	-1	3	-45	5267	-5.4	-9	-1
Cc1ccccc1NC(=O)/C(C#N)=C\c1ccsc1	11	0	-12	1943	6.0	0	-3
COc1ccc(Br)cc1C=NNC(=O)CN1CCCCC1	-4	7	/	/	-0.3	5	/
CCN(C(=O)c1cc2c(s1)-c1ccccc1S(=O)(=O)C2)c1cc(OC)ccc1OC	3	-1	-6	5392	4.3	-14	-5
O=C(Cn1cnc2c(nnn2-c2ccccc2)c1=O)NCc1ccco1	2	15	-13	5994	-6.9	-2	-10
CC(C)NS(=O)(=O)c1ccc(OCC(=O)Nc2cccc3ccccc23)cc1	4	4	-4	7951	3.6	10	7
Nc1nonc1-n1nnc(C(=O)N/N=C/c2ccco2)c1-c1ccccc1	/	/	0	4020	/	/	-8
COc1ccc(C(=O)Cc2cc(OC)c(OC)cc2[N+](=O)[O-])c(OC)c1	4	0	-25	10471	3.7	6	2
CC(=O)NC(Cc1c[nH]c2ccccc12)C(=O)NCCc1ccccc1 (stereo unspecified)	-3	-5	-21	3465	-2.8	2	-5
CCc1ccc(OCC(=O)Nc2ccc3c(c2)OCCO3)cc1	9	15	-19	5071	-2.0	1	-10
CCOCc1c(C(=O)NC2CCCCCC2)oc2ccccc12	-4	9	-24	4461	4.0	4	3
CN(Cc1ccccn1)Cc1nc(Cc2ccccc2Cl)no1	15	8	-18	2670	3.6	1	-6
CC(NCC(=O)Nc1cc(Cl)cc(Cl)c1)c1ccccc1 (stereo unspecified)	11	4	-10	3676	3.4	0	5
CC(=O)N1N=C(c2ccccc2)CC1c1cn(C)c2ccccc12 (stereo unspecified)	/	/	-72	2060	/	/	-3
CN(C(=O)COC(=O)c1cc(Br)c(Br)s1)C1CCS(=O)(=O)C1 (stereo unspecified)	2	8	6	2027	4.8	-1	0
Oc1ccc(C=Nn2c(-c3ccco3)csc2=Nc2cccnc2)c(O)c1	4	16	/	/	3.4	-6	/
C=CCOc1ccc2oc(=O)cc(C)c2c1	15	-6	-26	8625	6.7	3	-13
CC1(C)C2CCC1(C)C(OCC[N+](C)(C)CC(=O)OC1CCCCC1)C2 (stereo unspecified)	/	/	-8	2540	77	100*	4
O=C1OCCN1N=Cc1ccc([N+](=O)[O-])o1	-21	4	/	/	100*	100*	/
CC(C)(C)CN1CCN(Cc2cc3ccccc3[nH]2)CC1CCO (stereo unspecified)	3	6	-13	4035	-5.6	-2	-6
N#C/C(=C\c1ccc(C(=O)O)cc1)c1ccccn1	/	/	-15	4296	/	/	8
COc1ccc(-c2coc3cc(OC4OC(CO)C(O)C(O)C4O)c(OC)cc3c2=O)cc1 (stereo unspecified)	9	0	/	/	7.0	0	/
COc1cc(CNCCc2ccc(S(N)(=O)=O)cc2)ccc1OCC(=O)N1CCCCC1	9	-4	-9	6860	5.4	9	-17
CCN1CCN(c2ccc(S(=O)(=O)N3CCOCC3)cc2NC(=O)C(C)Oc2cccc(Cl)c2)CC1 (stereo unspecified)	5	12	-93	4378	5.5	-9	-5
Nc1nnnn1/N=C/c1cccs1	/	/	-16	21800*	/	/	2
COc1cc(/C=C(\C#N)C(=O)Nc2cccc(C(=O)O)c2)ccc1OCc1ccc(F)cc1	10	8	-44	5725	6.3	3	-9
CCc1cc(C(=O)Nc2ccc(OC)nc2)sc1C	/	/	-24	5885	/	/	-8
CCOc1ccc(C=NNC(=O)Cn2ccnc2C)cc1	10	9	/	/	1.8	6	/
COc1cccc(/C=C/C(=O)OCC(=O)Nc2cccc(S(=O)(=O)N(C)C)c2)c1	6	3	6	3797	5.8	10	-3
O=C(CCCC(=O)OCC(F)(F)C(F)F)Nc1ccc(NC(=O)CCCC(=O)OCC(F)(F)C(F)F)cc1	14	7	-25	5783	2.3	4	-1
Cc1ccccc1NCc1nnc2n1CCCCC2	-10	5	-15	2423	7.1	6	1
COc1cc(C)cc(C(=O)O)c1C1=C(O)c2cccc(O)c2C(=O)C1=O	/	/	-12	5026	5.2	-10	/
COc1ccc(NC(=O)CN(Cc2ccccc2)S(C)(=O)=O)cc1	5	8	-12	23289*	4.9	-2	6
CCOc1ccccc1NC(=O)c1ccc(OCC)c([N+](=O)[O-])c1	11	6	-19	2115	4.6	0	7
O=C(OCc1nnc(-c2ccc([N+](=O)[O-])cc2)o1)C1CCN(C(=O)c2ccc(F)cc2)CC1	-6	8	-23	/	4.7	2	/
N#CC1=C(N)Oc2c(ccc3ccccc23)C1c1ccsc1 (stereo unspecified)	-87	-25	77*	8009	2.0	-21	39
CC(=O)c1cc2c(cc1NC(=O)Cn1nc(-c3ccc(C)cc3)ccc1=O)OCO2	2	5	-4	5698	4.4	4	-5
COc1ccccc1NN=Cc1ccc2c(c1)OCO2	17	-3	/	/	3.0	16	/
CCOC(=O)c1c(C)nc(C)c(C(=O)OCC)c1-c1cccnc1	12	4	5	2897	1.0	0	0
COc1ccc(F)cc1S(=O)(=O)NC1CCCCCC1	/	/	-3	3081	0.4	12	8
Cc1ccccc1-c1cc(C(=O)NCc2cccs2)nn1CC1CC(c2cccc([N+](=O)[O-])c2)=NO1 (stereo unspecified)	7	14	-4	2976	2.9	-10	/
CCC(C)NC(=S)Nc1ccccc1OC (stereo unspecified)	-1	-1	-21	2041	6.5	5	-2
CC(=NNC(=O)CCC(=O)NN=C(C)c1ccc(C)o1)c1ccc(C)o1	-1	6	/	/	4.3	2	/
O=C1CSC(=Nc2ccc(Cl)cc2)N1	14	0	-8	4330	0.7	-1	-8
COc1ccccc1N1CCN(C(=O)c2ccc(N3CCCC3=O)cc2)CC1	11	8	-27	2854	-9.0	-9	2
O=C(Cc1csc(Nc2nc(=S)[nH]c3ccccc23)n1)N1CCN(c2cccc(C(F)(F)F)c2)CC1	-9	-9	-29	4135	-9.9	1	-15
Cc1ccc(C(=O)Nc2cc(-c3ccn[nH]3)c(C)n(N)c2=O)cc1	1	0	-16	2534	8.1	1	0
NS(=O)(=O)c1ccc(CCNC(=O)COC(=O)C2COc3ccccc3O2)cc1 (stereo unspecified)	12	6	-11	3882	7.0	9	/
Cc1ccc2c(c1)c1nnc(SCC(=O)NC3CC3)nc1n2C	/	/	-46	5206	/	/	-15
Cc1ccsc1/C=N/NC(=O)c1nnn(-c2nonc2N)c1CSc1ccccc1	/	/	-3	5468	/	/	2
CCC(C(=O)NCCCN1CCN(CCCNC(=O)C(CC)c2ccccc2)CC1)c1ccccc1 (stereo unspecified)	15	0	-7	3833	2.6	4	5
O=C(NCCc1c[nH]c2ccccc12)/C(=C\c1ccco1)NC(=O)c1ccco1	-14	3	-12	2527	1.1	-4	11
CSc1nc(N)cc(=O)[nH]1	7	7	-22	5152	5.2	6	-10
CC(=NNC(=O)c1ccccn1)C12CC3CC(CC(C3)C1)C2	3	-1	/	/	5.0	0	/
CCOC(=O)N1CCC(NS(=O)(=O)c2cc3c(cc2C)NC(=O)CO3)CC1	1	8	-19	6657	4.8	10	5
COc1ccc(Cl)cc1NC(=O)COC(C)=O	-6	3	-12	4326	1.7	4	-2
N#Cc1c(N2CCCCC2)nc(N)c2c(N)nc3c(c12)CC(c1ccccc1)O3 (stereo unspecified)	/	/	-10	4696	-2.7	6	9
Cn1c(CO)cnc1SCc1ccc(Cl)cc1	6	9	-4	2664	6.7	5	-4
CC1CCC(NC(=O)CNC(=S)N2CC3CC(C2)c2cccc(=O)n2C3)CC1 (stereo unspecified)	8	-1	5	6440	-0.3	-1	-4
Further entries follow.
SMILES	Mtb hypoxia rep	Mtb hypoxia rep growth	PrP UTR inh	Bead autofluor	RN4220 kill	Sa ugtP lethal	BJeLR viability
CCn1c(-c2cccc(Br)c2)n[nH]c1=S	/	/	-1	4233	-0.5	-4	2
O=C(NC(=S)NNC(=O)c1ccco1)c1ccccc1	3	1	-13	?	22	11	-16
COc1ccc(Cc2nnc(NN=Cc3ccc(C)o3)[nH]c2=O)cc1	-2	4	/	/	9.3	-2	/
Cc1ccccc1-n1nc(-c2cccnc2)cc1C(=O)NN=Cc1ccncc1	-2	2	/	/	4.0	7	/
CCOC(=O)C1CCC(CNCc2ccc(Cl)cc2)CC1 (stereo unspecified)	0	2	-3	2695	3.7	3	-8
COc1ccc(Cl)cc1C(=O)NNC(=O)COC(=O)CCN=C1NS(=O)(=O)c2ccccc21	0	9	-19	5472	4.6	9	0
O=C(c1cccs1)N1CCCC(N2CCN(c3cccc(C(F)(F)F)c3)CC2)C1 (stereo unspecified)	10	2	-16	6158	2.9	4	-2
CC(C)Nc1nc(N)c(C(=O)C23CC4CC(CC(C4)C2)C3)s1	-1	-1	-10	3656	-2.0	-18	-4
O=c1c2c(nc3nc(NCc4cccc5ccccc45)[nH]n13)CCC2	6	2	2	3638	-1.5	-2	0
O=C(CSc1ccc(Cl)cc1)NC(=O)c1ccccc1	8	9	4	4317	2.4	7	/
O=C(CSc1nc2ccccc2c(=O)n1-c1ccc(F)cc1)Nc1cc(S(=O)(=O)N2CCOCC2)ccc1Cl	-2	3	-11	2078	1.7	2	8
Cc1ccc2[nH]c(=O)c(CN(CCCO)S(=O)(=O)c3cccc4nsnc34)cc2c1	-1	3	-20	10476	5.9	-8	-3
COc1ccc(CC(=O)NNC(=O)c2ccc(Br)o2)cc1	9	11	-25	4265	1.7	6	-1
O=C1NC(=S)N/C1=C/C=C/c1ccccc1	-10	-2	-22	2388	2.2	-2	-1
O=C(NCCN1CCOCC1)Nc1ccc(Cl)cc1	13	7	-6	4511	6.4	-2	2
Cc1ccc(N2CCN(S(=O)(=O)c3ccc4oc(=O)ccc4c3)CC2)cc1Cl	10	2	-33	3758	1.2	12	6
COc1ccc(CCNC(=O)/C(C#N)=C2\N=C(NC(=O)c3ccco3)c3ccccc32)cc1	6	6	/	/	1.7	-8	-7
CCCCn1nnc(NC(=O)CCC)n1	14	6	-20	19212*	-0.3	-1	-9
CCOC(=O)c1ccc(NC(=O)c2ccc(CN3CCc4ccccc4C3)cc2)cc1	-1	-7	-16	4095	-1.5	-3	10
O=C(COc1ccc(S(=O)(=O)N2CCCC2)cc1Cl)NCc1ccco1	18	1	-21	10673	6.6	5	6

Look-ups from the list:
In Mtb hypoxia rep, O=C(COc1ccc(S(=O)(=O)N2CCCC2)cc1Cl)NCc1ccco1 reads 18
In Bead autofluor, COc1ccc(Cl)cc1C(=O)NNC(=O)COC(=O)CCN=C1NS(=O)(=O)c2ccccc21 reads 5472
In BJeLR viability, COc1ccc(CCNC(=O)/C(C#N)=C2\N=C(NC(=O)c3ccco3)c3ccccc32)cc1 reads -7

The listing picks up with the three entries that preceded the break.
SMILES	Mtb hypoxia rep	Mtb hypoxia rep growth	PrP UTR inh	Bead autofluor	RN4220 kill	Sa ugtP lethal	BJeLR viability
CCCCn1nnc(NC(=O)CCC)n1	14	6	-20	19212*	-0.3	-1	-9
CCOC(=O)c1ccc(NC(=O)c2ccc(CN3CCc4ccccc4C3)cc2)cc1	-1	-7	-16	4095	-1.5	-3	10
O=C(COc1ccc(S(=O)(=O)N2CCCC2)cc1Cl)NCc1ccco1	18	1	-21	10673	6.6	5	6
Cc1c(NC(=O)c2ccc(NC(=O)C3CC3)cc2)cccc1C(=O)O	9	4	-13	6164	-0.2	3	8
CC(C)c1ccccc1NC(=S)NC1CCN(Cc2ccccc2)CC1	2	-2	-3	1965	1.2	4	20
CC(C)(CO)NC(=O)c1ccc2c(c1)C(=O)c1ccccc1-2	4	-11	-48	3577	0.7	1	2
Cc1ccnc(N2CCN(C(=O)CSc3nc4ccccc4nc3N3CCCCC3)CC2)c1	/	/	-3	2419	-2.8	-13	6
N#Cc1c(N)n(C2CCCCC2)c2nc3ccccc3nc12	/	/	-17	4298	4.0	-22	-5
S=c1nc[nH]c2c1ncn2-c1ccc(Cl)cc1	-1	8	-8	3896	3.2	8	/
COc1ccc(CC(=O)Nc2ccc(N(C)C)c3ccccc23)cc1	6	3	-9	2992	0.6	13	1
COC(=O)C1CCN(C(=O)Nc2ccc(OC)cc2)CC1	/	/	-5	4483	1.9	5	7
